Screening data as filed in PubChem.
ClpP mod – qHTS Assay for Activators of ClpP. ATP-dependent Clp protease proteolytic subunit (Bacillus subtilis (strain 168)), P80244. purified B. subtilis ClpP, FRET peptide cleavage, 20 min. Potency, µM (highest dose often 57.5 µM), inactives show at the highest dose activity change, negative = active. 1.9% of 340,000 active; active = well fitted falling curve with a large enough effect; inconclusive = small, poorly fitted or top-dose-only effect; inactive = no such curve, though single readings can be large or run the other way; note: the source files actives as falling curves though it sought activators and does not explain the sign; nearly all actives have a fitted effect of over 65% in size; many hits overshoot -100%
Target sequence (P80244 whole entry, looked up): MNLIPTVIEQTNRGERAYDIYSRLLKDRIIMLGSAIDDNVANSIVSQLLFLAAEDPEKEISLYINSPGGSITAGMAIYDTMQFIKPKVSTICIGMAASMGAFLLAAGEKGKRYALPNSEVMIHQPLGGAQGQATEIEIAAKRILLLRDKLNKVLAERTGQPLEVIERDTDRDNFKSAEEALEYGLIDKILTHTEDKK
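ClpP 10 microg/mL final, pH 8 Tris/KCl buffer with BSA, glycerol, Tween-20; compound pinned in; FRET-FV substrate; RT 20 min; Ex320/Em430; ΔFRET vs ADEP 5.8 microM, DMSO, no enzyme.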
* hit, by the source's call; ? = inconclusive. Potency is the fitted concentration of half-maximal effect. Some of the compounds tested. The share of hits here may be higher or lower than overall.

The first 7 entries, ahead of the listing:
SMILES	ClpP mod
Cc1ccc(CNC(=O)c2c(Nc3c(C)cccc3C)sc(C(=O)c3ccccc3)c2N)cc1	0.8%
C=CC[n+]1ccnc2ccccc21	?
CCc1nn(CC(=O)N2CCCCC2)c(=O)c2cc3sc(C)cc3n12	-1.7%
Cc1ccc(NC(=O)C2CCCN2S(=O)(=O)c2ccc3c(c2)C(C)(C)C(=O)N3C)cc1 (centres undefined)	-0.4%
Cc1ccc(-c2nonc2NC(=O)c2ccco2)cc1C	0.2%
CCOc1ccc(NS(=O)(=O)c2ccc3[nH]cc(C(=O)N(C)C4CCCCC4)c(=O)c3c2)cc1	-14%
CC(C)=CCCC(C)c1cc(C(=O)NCCc2ccc(O)cc2)c(N)s1 (centres undefined)	-3.0%

Results, from the first entry:
SMILES	ClpP mod
Cc1ccc(CNC(=O)c2c(Nc3c(C)cccc3C)sc(C(=O)c3ccccc3)c2N)cc1	0.8%
C=CC[n+]1ccnc2ccccc21	?
CCc1nn(CC(=O)N2CCCCC2)c(=O)c2cc3sc(C)cc3n12	-1.7%
Cc1ccc(NC(=O)C2CCCN2S(=O)(=O)c2ccc3c(c2)C(C)(C)C(=O)N3C)cc1 (centres undefined)	-0.4%
Cc1ccc(-c2nonc2NC(=O)c2ccco2)cc1C	0.2%
CCOc1ccc(NS(=O)(=O)c2ccc3[nH]cc(C(=O)N(C)C4CCCCC4)c(=O)c3c2)cc1	-14%
CC(C)=CCCC(C)c1cc(C(=O)NCCc2ccc(O)cc2)c(N)s1 (centres undefined)	-3.0%
CCOc1ccccc1NC(=O)C1CCCN(S(=O)(=O)c2cn(C)cn2)C1 (centres undefined)	-4.2%
CCc1nnc(SCC(=O)Nc2ccc(Cl)cc2F)c2cc3occc3n12	-3.0%
CN(C)c1ccc(/C=C/c2cc3ccccc3cn2)cc1	-4.3%
Cc1ccc(Cl)cc1NC(=O)CN1C(=O)C(C)(C)c2cc(S(=O)(=O)N3CCCCC3)ccc21	-2.9%
Cc1cc(C)cc(NS(=O)(=O)c2ccc3[nH]cc(C(=O)N(C)Cc4ccccc4)c(=O)c3c2)c1	-24%
COc1cc(Nc2nn(-c3ccc(OC(F)(F)F)cc3)nc2C(C)=O)cc(OC)c1	3.9%
CN(C)c1ccc(CNC(=O)CCCN2C(=O)CCn3nc(-c4cn(C)c5ccccc45)cc32)cc1	-13%
CCOC(=O)c1cnc2cc(-c3ccc(OCC)cc3)nn2c1-c1ccccc1	4.4%
Cc1nc(-c2ccccc2)sc1CCNS(=O)(=O)c1ccc(Br)cc1	?
COc1ccc(Cn2c(C(=O)O)c(CNCCc3cccs3)c3ccc(OC)cc32)cc1	-18%
CCOc1ccc(NC(=O)c2oc3ccccc3c2NC(=O)c2cc3ccccc3o2)cc1	1.0%
CCOc1ccc(CN2C(=O)c3ccccc3Sc3ccc(C(=O)NC)cc32)cc1	-2.4%
CC(C)(C)C(c1nc2ccccc2[nH]1)n1c(-c2cc(Cl)cc(Cl)c2)nc2ccccc21 (centres undefined)	?
Cc1cc2ccccc2c[n+]1C1CCCCC1	4.2%
CCOc1ccc(NC(=O)Cn2nnc(C(=O)NCCc3ccccc3)c2N)cc1	0.9%
Cc1cccc(NC(=O)c2cc(S(=O)(=O)N3CCN(c4ccccc4F)CC3)ccc2F)c1C	-2.5%
CCS(=O)(=O)c1ccccc1C(=O)N(Cc1cccnc1)c1nc2cc(C)c(C)cc2s1	-2.2%
CCC(C(=O)Nc1ccccc1C(=O)OC)n1c(C)c2cnn(-c3ccccc3)c(=O)c2c1C (centres undefined)	-2.7%
COc1ccc2c(c1)-c1nc(NC(=O)c3cccc(Br)c3)sc1CC2	?
CCCC(O)c1nc2ccccc2n1CCCCOc1ccc(OC)cc1 (centres undefined)	-2.3%
CCn1c2ccccc2c2nnc(SCC(=O)Nc3ccccc3OC)nc21	-3.8%
O=C(O)CCCNc1cc(N2CCN(C3CCCCC3)CC2)c2noc3c2c1C(=O)c1ccccc1-3	0.1%
CCOc1ccc(NC(=O)CSc2oc(-c3cccs3)nc2S(=O)(=O)c2ccc(C)cc2)cc1	-1.5%
Cc1ccc2oc(=O)c3cc(C(=O)NCCc4ccc(Cl)cc4)sc3c2c1	-0.9%
Cc1ccc(-c2noc(-c3ccccc3NC(=O)C3CC(=O)N(c4cccc(C)c4)C3)n2)cc1 (centres undefined)	-18%
CCc1nnc(NC(=O)c2ccccc2NC(=O)C2CCN(C(=O)c3ccco3)CC2)s1	-11%
Cc1ccc(Cn2ccn(Cc3ccccc3C)c(=O)c2=O)cc1	0.1%
COc1ccc(C2c3c(n(C)c4ccccc34)C(=O)N2CC(=O)Nc2ccc(F)cc2)cc1 (centres undefined)	?
Cc1ccc(NC(=O)C2CCCN2S(=O)(=O)c2cccc3cccnc23)cc1C (centres undefined)	-3.1%
COc1ccc(CCC(=O)N2c3ccccc3N=C(c3ccc4c(c3)OCO4)C2C(=O)NCc2ccccc2)cc1 (centres undefined)	32µM*
O=C(CBr)c1ccc(Oc2ccc(C(=O)C[n+]3cccc(Br)c3)cc2)cc1	0.7%
Cc1ccc(CNC(=O)c2ccc(Cn3c(=O)c4ccccc4n(CC(=O)Nc4ccc(C)cc4C)c3=O)cc2)cc1	-5.7%
Cc1ccc(Cn2cc(C(=O)c3ccc(C)cc3)c(=O)c3ccc(C)nc32)cc1	-2.9%
COc1cccc(CNC(=O)[C@@H]2CCCN2C(=O)[C@@H]2CCCN2C(=O)c2cccc3ccccc23)c1	3.4%
CCCc1noc(-c2ccc(N3CCCCC3)c([N+](=O)[O-])c2)n1	1.0%
CCCCOc1ccc(C2=NC(c3cccs3)=Nc3ccc(OC)cc3N2)cc1	2.1%
O=c1c2[nH]c3ccccc3c2nc(SCc2cccc(F)c2)n1-c1ccccc1	-12%
COc1ccc(-n2nc(C)c3c(C(F)(F)F)cc(-c4cccnc4)nc32)cc1	0.0%
O=C(CCC(=O)N1Cc2ccccc2Oc2ncccc21)NCc1ccccc1Cl	-7.5%
CC(C)(C)C(=O)OCc1cc(=O)n2nc(C3CC3)sc2n1	-9.2%
O=C(CSc1nc2c([nH]c3ccccc32)c(=O)n1-c1ccc(Cl)cc1)N1CCOCC1	-1.9%
CC(Oc1ccccc1)C(=O)Nc1ccc(OCc2cc(=O)n3ccsc3n2)cc1 (centres undefined)	-0.2%
COc1ccc(NC(=O)CSc2nc(-c3ccccc3)nc3c2Cc2c(CO)cnc(C)c2O3)cc1Cl	-0.8%
The list goes on.
SMILES	ClpP mod
COc1cc(NC(=O)C(Cc2ccccc2)NS(=O)(=O)c2cccs2)cc(OC)c1 (centres undefined)	-11%
COc1cccc(N2CCN(C(=O)CCn3nc(C)c(S(=O)(=O)N4CCCC4)c3C)CC2)c1	-0.1%
O=C(Cn1nc(C(F)(F)F)c2c1CCCC2)Nc1ccc(Br)cc1	-2.8%
CC(C)C[C@@H](COCc1cccc(C(F)(F)F)c1)N1CCN(C(=O)c2ccc(C(F)(F)F)cc2)CCC1=O	4.0%
CCCCN(CCCC)S(=O)(=O)c1ccc2oc(C(=O)NCc3ccccc3)c(C)c2c1	-1.2%
COc1cc(C2c3c(oc4ccccc4c3=O)C(=O)N2Cc2ccccc2Cl)ccc1O (centres undefined)	1.0%
COc1ccc(NC(=O)C(C(C)C)N2Cc3ccccc3C2=O)cc1 (centres undefined)	0.4%
COc1cccc(Cn2c(CNC(=O)Cc3cccc(C)c3)nc3cccnc32)c1	-0.9%
O=C(CSc1cn(CC(=O)N2CCCC2)c2ccccc12)Nc1ccccc1C(F)(F)F	-5.0%
CCN(CC)S(=O)(=O)c1cc(-c2ccc(=O)n(C(C)C(=O)Nc3cccc(C#N)c3)n2)ccc1C (centres undefined)	-5.1%
Cc1cccc(Nc2nnc(-c3ccc(C)c(S(=O)(=O)N4CCN(C)CC4)c3)c3ccccc23)c1	-7.3%
COc1cc(NC(=O)c2cc3c(=O)n(Cc4ccco4)ccc3nc2C)cc(OC)c1OC	-3.0%
COc1ccc(Cn2cc(C(=O)c3ccc(F)cc3)c(=O)c3cc4c(cc32)OCCO4)cc1	30%
CCn1ccc2cc(S(=O)(=O)N3CCC(C(=O)NCc4ccc(OC)cc4)CC3)ccc21	-28%
COc1ccc(C(=O)NCC(c2cccnc2)N2CCc3ccccc3C2)cc1 (centres undefined)	-2.0%
CCc1cccc(NC(=O)Cn2c(=O)n(Cc3ccccc3)c(=O)c3c2c2cc(OC)ccc2n3C)c1	3.8%
CCOC(=O)c1c(C)[nH]c(C)c1S(=O)(=O)N1CCCC(C(=O)N2CCN(c3ccccc3)CC2)C1 (centres undefined)	0.5%
CCOc1cccc(CNC(=O)c2ccc(N3CCCC3)c(NC(=O)NCc3ccccc3)c2)c1	?
O=C(CSc1nccn1Cc1ccc(Cl)cc1)NCc1ccccc1	1.5%
CCc1nc2nc(C)cc(C)n2c1Nc1ccc(OC)cc1	-1.5%
COc1ccccc1N1CCN(C(=O)CSc2nc3ccccc3nc2Cc2ccc(C)cc2)CC1	-0.8%
COc1ccc(NC(=O)CC2C(=O)N(c3ccc(F)cc3)C(=O)N2Cc2ccco2)cc1 (centres undefined)	-0.4%
CCc1cccc(NC(=O)CCN2C(=O)c3ccccc3Sc3ncccc32)c1	-2.5%
CC(C)N1CCc2nc(SCC(=O)Nc3cccc(F)c3)[nH]c(=O)c2C1	-4.3%
Cn1nc(-c2ccccc2)c(-c2ccccc2)c(C(=O)Nc2ccccc2C(N)=O)c1=O	0.8%
CCOc1ccccc1N(CC)C(=O)Cn1ncc2c1-c1ccccc1OC2	0.3%
O=C1NC[C@@H](CCCCN2CCN(CCc3ccccc3)C(=O)C2=O)N(CC2CCCCC2)C1=O	1.4%
CCOc1ccc2c(c1)c(=O)c(C(=O)c1ccc(CC)cc1)cn2CC(=O)Nc1ccccc1C	-0.3%
COc1ccc(CCNC(=O)c2ccc3c(c2)ncn3-c2ccc(C)cc2C)cc1OC	-1.0%
CC1CCN(S(=O)(=O)c2ccc(C(=O)Nc3nc4ccc(F)cc4s3)cc2)CC1	-6.7%

A draw from above in order of heavy-atom count, ascending.
SMILES	ClpP mod
CC(C)N1CCc2nc(SCC(=O)Nc3cccc(F)c3)[nH]c(=O)c2C1	-4.3%
CCc1cccc(NC(=O)CCN2C(=O)c3ccccc3Sc3ncccc32)c1	-2.5%
COc1ccc(CCNC(=O)c2ccc3c(c2)ncn3-c2ccc(C)cc2C)cc1OC	-1.0%
CCOc1ccc2c(c1)c(=O)c(C(=O)c1ccc(CC)cc1)cn2CC(=O)Nc1ccccc1C	-0.3%
COc1ccccc1N1CCN(C(=O)CSc2nc3ccccc3nc2Cc2ccc(C)cc2)CC1	-0.8%

Additional structures follow.
SMILES	ClpP mod
Cc1ccc(S(=O)(=O)CC(=O)Nc2sc3c(c2C(N)=O)CCCC3)cc1	1.4%
Cc1ccc(CNC(=O)CN(c2cc(C)cc(C)c2)S(=O)(=O)c2c(C)[nH]c(=O)[nH]c2=O)cc1	0.3%
COCCn1c(SCC(=O)c2c[nH]c3ccccc23)nc2cc(C(=O)NCC(C)C)ccc2c1=O	0.0%
Fc1ccc(C(Nc2ccc(Cl)c(C(F)(F)F)c2)c2nnc(-c3ccccc3)o2)cc1 (centres undefined)	-10%
C=CC[C@H](c1ccc(F)cc1)N(CC(C)C)S(=O)(=O)C=C	1.7%
Cc1ccc(C(=O)Nc2ccc3oc(-c4cccnc4)nc3c2)c(Cl)c1	?
COc1ccc(-n2c(SCC(=O)N3CCCc4ccccc43)nc3c([nH]c4ccccc43)c2=O)cc1	-2.6%
O=C(C[C@H]1CC[C@@H]2[C@H](COC[C@@H](O)CN2C(=O)C2CC2)O1)NCc1ccccc1Cl	0.1%
CC(=O)c1ccc(NC(=O)CSc2nnc3ccc(-c4ccc(Cl)cc4)nn23)cc1	6.5%
COc1ccc(C(=O)Nc2cc3cc(Cl)ccc3oc2=O)cc1OC	-14%
CCOc1ccc(-n2c(SCC(=O)NC3CCCCC3)nc3c([nH]c4ccccc43)c2=O)cc1	51%
COc1ccc(N2CCN(C(=O)CS(=O)(=O)c3cccc4nsnc34)CC2)cc1	-5.2%
COc1ccc(CNC(=O)Cc2c(C(=O)O)c(C)cn2C)cc1	-0.6%
COc1cc(OC)c(NC(=O)N2CCc3cc(S(=O)(=O)N4CCC(C)CC4)ccc32)cc1Cl	?
O=C(O)CCn1c(=O)c2cccn2c2cccnc21	4.7%
COc1ccc(NC(=O)c2cc(C3CC3)nc3c2c(C)nn3-c2ccc(C)cc2)cc1OC	-1.0%
CCOC(=O)c1c(C)sc(-c2c(-c3ccc4c(c3)OCCO4)[nH]c3c2c(=O)n(C)c(=O)n3C)c1O	-2.5%
COc1ccc(-c2cc(C(F)(F)F)nc(SCCC(=O)Nc3ccccc3F)n2)cc1	-1.2%
O=S(=O)(Nc1ccc(Br)cc1)c1ccc2nc(-c3ccccc3)[nH]c2c1	-1.5%
Cc1ccc(-c2nnn3c2nc(NCCc2ccccc2)c2ccccc23)cc1	2.2%
CCOC(=O)Cn1c(=O)oc2cc(S(=O)(=O)N3CCN(c4cccc(Cl)c4)CC3)ccc21	-1.2%
CC1OC(CCc2cccc(Cl)c2)Cc2[nH]c(=S)[nH]c(=O)c21 (centres undefined)	0.6%
O=C(NC1(C(F)(F)F)N=C(c2ccccc2)N(C2CCCCC2)C1=O)c1ccccc1F (centres undefined)	-2.1%
CC(C)(C)NC(=O)C(C1CC1)n1c(=O)c(-c2ccccc2)nc2ccccc21 (centres undefined)	4.7%
CCN(C(=O)CSc1nc2ccccc2n1CC(=O)Nc1cccc(C#N)c1)c1ccccc1	?
CCOC(=O)c1c(C)[nH]c(CCC(=O)Nc2c(C)cccc2CC)c1C	-2.8%
Cc1ccc2c(c1)cc(C(=O)NCc1ccc(F)cc1)n2C	?
COc1ccc(CNC(=O)c2cnn(-c3ccc(F)cc3)c2-n2cccc2)cc1	1.7%
